Bioassay records deposited in PubChem by several laboratories.
B2AR ag: activates human beta-2 adrenergic receptor causing internalization; AID 504454; response, % (concentration not given with the values); Am2.2-beta2AR cells, FAP receptor internalization, flow cytometry; reference of the scale not given here; P07550; 340,000 tested, 0.43% active;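 active = response above a set limit, near 3 SD of response in nonfluorescent compounds, cut at about 42% in these data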;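 also: stock transfer was 100 nL into about 11 µL; a reference agonist was the positive control; negative values mostly stem from fluorescent compounds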
T cruzi inh: blocks replication of Trypanosoma cruzi | T. cruzi beta-gal in NIH3T3, luminescence, 90 h | inhibition, % (no concentration beside the values) | 300,000 tested, 1.4% active | AID 1885;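 active = mean inhibition across valid replicates above about 55%, limit read from the data; inconclusive = mean below that limit but half or more replicates reach it; inactive = mean below it, under half of replicates reach it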;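 also: signal also drops with host cell toxicity which is not excluded here; 0% = plate median of DMSO wells and 100% = zero luminescence signal; higher percent means less beta-gal luminescence so fewer parasites; stock transfer was 50 nL into about 50 µL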
LANA-H2B inh: blocks KSHV LANA binding to histone H2A/H2B; Q9QR71; cell-free LANA-H2A/H2B peptide, fluorescence polarization; inhibition, % (no concentration beside the values); 320,000 tested, 0.6% active; AID 2629; in the data active = inhibition mostly above about 10%, no sharp cut-off; inactive = mostly below about 6.7%;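 also: stock transfer was 7.5 nL into about 10 µL; 0% = median of vehicle wells and 100% = median of positive control wells; one replicate is shown; the record names a cut of 25% in any replicate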
Target sequence (Q9QR71 whole entry, looked up): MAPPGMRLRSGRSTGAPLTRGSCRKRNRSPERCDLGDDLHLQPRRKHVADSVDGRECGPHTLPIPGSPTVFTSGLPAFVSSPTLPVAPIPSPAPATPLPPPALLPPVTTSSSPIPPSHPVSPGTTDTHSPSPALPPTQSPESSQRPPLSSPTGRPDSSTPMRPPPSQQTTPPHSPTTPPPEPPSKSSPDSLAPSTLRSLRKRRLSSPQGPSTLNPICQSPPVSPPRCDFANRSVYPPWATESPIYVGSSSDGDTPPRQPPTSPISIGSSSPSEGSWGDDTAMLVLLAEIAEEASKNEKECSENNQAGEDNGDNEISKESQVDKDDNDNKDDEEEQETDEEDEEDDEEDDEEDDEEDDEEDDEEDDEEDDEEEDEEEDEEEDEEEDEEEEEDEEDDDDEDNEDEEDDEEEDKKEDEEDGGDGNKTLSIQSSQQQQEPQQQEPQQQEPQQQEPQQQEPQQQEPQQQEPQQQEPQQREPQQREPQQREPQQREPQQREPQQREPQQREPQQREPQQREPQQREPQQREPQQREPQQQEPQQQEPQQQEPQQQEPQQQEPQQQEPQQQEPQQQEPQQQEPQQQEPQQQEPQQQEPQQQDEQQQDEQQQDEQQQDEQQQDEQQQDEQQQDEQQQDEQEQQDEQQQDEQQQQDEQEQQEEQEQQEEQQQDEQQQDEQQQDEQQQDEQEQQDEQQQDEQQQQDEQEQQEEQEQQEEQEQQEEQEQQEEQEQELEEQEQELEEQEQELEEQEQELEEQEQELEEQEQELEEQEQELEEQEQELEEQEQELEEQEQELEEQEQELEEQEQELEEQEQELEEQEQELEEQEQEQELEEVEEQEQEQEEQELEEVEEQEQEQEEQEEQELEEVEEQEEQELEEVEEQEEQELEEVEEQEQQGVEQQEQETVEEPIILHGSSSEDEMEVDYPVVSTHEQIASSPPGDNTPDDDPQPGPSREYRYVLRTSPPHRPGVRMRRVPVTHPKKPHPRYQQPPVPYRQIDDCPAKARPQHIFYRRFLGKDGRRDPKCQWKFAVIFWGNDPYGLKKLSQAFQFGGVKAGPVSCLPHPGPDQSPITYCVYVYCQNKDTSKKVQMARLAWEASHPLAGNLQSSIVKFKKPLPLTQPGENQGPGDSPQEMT
Ecoli rRNA inh: inhibitors of bacterial rRNA selective over humanized ribosomes; E. coli WT GFP vs humanized-ribosome RFP mutants, fluorescence, 24 h; active compounds read low; DMSO median 0, no signal -100; AID 720706; GFP signal change (wild-type ribosome), % (test concentration not listed); 350,000 tested, 1.6% active;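 active = significant combined selectivity score with lowered wild-type GFP, culture density cut under 30%, mutant RFP and density less affected; inactive = any of these conditions unmet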; also: one replicate is shown; some compounds called inactive have numbers as strong as hits
Calb FLC: C. albicans growth modulation with fluconazole; C. albicans CaCi-2 (fluconazole-resistant clinical isolate) + fluconazole, Alamar Blue growth, 48 h; growth inhibition, % (concentration not given with the values); 300,000 tested, 0.57% active;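 active = most replicates above 75%; inconclusive = exactly half above 75%; inactive = most below 75%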;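 also: all wells also contain fluconazole at 8 µg/ml as a sub-toxic cotreatment; 0% = median of DMSO wells and 100% = median of geldanamycin control wells; wells of about 8 µL received 7.5 nL stock; the first replicate is given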
ALR H2O2 inh: blocks human ALR sulfhydryl oxidase activity; AID 485317; P55789; purified ALR, DTT oxidation, H2O2 HRP-luminol luminescence; 290,000 tested, 3.8% active; inhibition, % (concentration not given with the values);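 active = mean and each replicate at 75% or more; inconclusive = only one of the two met; inactive = neither met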;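 also: stock transfer was 7.5 nL into about 7.5 µL; 0% = neutral wells and 100% = wells with inactivated enzyme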
Beta apoptosis: blocks beta cell apoptosis. INS-1E cytokine-induced death, ATP luminescence, 48 h; percent of positive-control rescue, neutral wells zero. protection from apoptosis, % (test concentration not listed). 300,000 tested, 0.8% active;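 active = all replicates at 75% or more, or half of them and the mean; inconclusive = half reach 75% but not the mean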;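 also: 0% = cytokine-treated negative control wells and 100% = positive control rescue; higher means more ATP so stronger rescue from cytokine killing; wells of about 40 µL received 100 nL stock; the first replicate is given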
A1 inh: inhibitors of the anti-apoptotic protein A1, read as caspase activation; 330,000 tested, 0.066% active; caspase activation, % (test concentration not listed); AID 2462; MEF A1-2A-BIM cells, Caspase-Glo 3/7 luminescence, 3 h; percent of clofoctol response, vehicle zero;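 active = over half of replicate activation scores above 10%, or exactly half above 10 with the replicate mean above 10; inconclusive = replicate mean below 10 yet half the replicates above 10; inactive = over half of replicates below 10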;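 also: wells of about 30 µL received 50 nL stock; many hits fall short of the cut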
Ecoli rRNA inh OD600: recorded beside Ecoli rRNA inh, whose call it bears; OD600 change, %; measured here: OD600 growth;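 optical density of the mix in the first replicate; 0 = DMSO median and -100 = no signal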
Ecoli rRNA inh RFP: recorded beside Ecoli rRNA inh, whose call it bears; RFP signal change, %; measured here: RFP humanized mutant strains;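 first replicate; 0 = DMSO median and -100 = no signal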
* = called active by the depositor; ? = inconclusive; . = no result given. These rows are one share of the data; the hit share may differ from the screen's.

SMILES	B2AR ag	T cruzi inh	LANA-H2B inh	Ecoli rRNA inh	Ecoli rRNA inh OD600	Ecoli rRNA inh RFP	Calb FLC	ALR H2O2 inh	Beta apoptosis	A1 inh
Cc1[nH]n(-c2ccccc2)c(=O)c1N=Nc1cccc([N+](=O)[O-])c1	14	61*	0.1	4	-2	-3.9	0	1	-2	0.8
O=C(N/N=C/c1ccc(O)cc1)/C(=C/c1ccccc1)CCO	-2	9	6.5	.	.	.	9	100*	1	-0.1
CCN=C(NCC)SC1CC(=O)N(c2ccccc2)C1=O (centres undefined)	-21	16	2.5	.	.	.	15	-1	3	-0.1
Cc1nnsc1C(=O)N/N=C/c1ccccc1	13	-13	1.1	18	9	0.0	1	0	7	0.0
COC(=O)c1ccsc1NC(=O)c1ccco1	0	-3	0.6	8	1	0.3	-2	-1	-6	-0.3
COC(=O)c1c(NC(=O)CN2C(=O)c3ccccc3C2=O)sc(Cc2ccc3c(c2)OCO3)c1C	-9	12	2.0	-1	5	-0.6	-2	-13	-2	-0.3
CCc1ccc(NC(=O)c2sc3nc(C)nc(N4CCN(c5ccccn5)CC4)c3c2C)cc1	5	29	-7.6	27	10	7.8	1	-1	-1	0.2
CCC[n+]1cn(/C(C(=S)Nc2cccc(Cl)c2C)=C(/[O-])c2ccc(OC)c(OC)c2)c2ccccc21	13	-1	-0.7	21	15	1.4	-5	-8	-12	-0.8
CCc1ccc(CN(C)Cc2nc(Cc3ccccc3)no2)nc1	-7	-3	4.8	5	1	-5.0	8	-4	-7	0.5
OCCN1CN=C(Nc2nc3ccccc3o2)NC1	3	-7	0.8	.	.	.	4	-1	-3	-1.9
Cc1cccc(-n2cc(CN(C)Cc3nccn3C)c(-c3cccc(F)c3)n2)c1	0	65*	-6.3	-57	-79	-23	14	-11	-3	0.4
Fc1ccccc1CSc1nncn1NC/C=C/c1ccccc1	9	-12	-0.5	.	.	.	0	-5	-6	0.2
Oc1ccccc1-c1cc(C(F)(F)C(F)F)[nH]n1	4	-6	-8.4	.	.	.	-21	70	9	0.5
COc1ccc(N2C(=NC(C)=O)SC3CS(=O)(=O)CC32)cc1OC (centres undefined)	4	-15	1.3	.	.	.	3	-12	-1	0.0
CCOC(=O)N1CCN(C(=O)C2CC(c3ccccc3OC)=NO2)CC1 (centres undefined)	1	-11	3.9	3	0	-6.4	13	10	-2	-0.6
CC1CCCN(S(=O)(=O)c2ccc(NC(=O)c3cccc(-n4cnnn4)c3)cc2)C1 (centres undefined)	-6	-3	4.7	.	.	.	1	-6	8	-1.6
Cc1cc(C)cc(N2CCN(C(=O)N3CCOCC3)CC2)c1	1	-4	-5.8	.	.	.	-2	11	-7	0.2
Cn1c(=O)c2c(nc(SCC(=O)N3CCOCC3)n2C)n(C)c1=O	3	-18	-7.2	0	4	4.8	-1	0	2	0.2
O=C(OCc1cc(=O)n2cc(Br)ccc2n1)c1ccc(Cl)c(S(=O)(=O)NCc2ccccc2)c1	-16	-1	-2.2	1	0	-7.3	26	-1	-4	0.5
CCCCc1ccc(-n2nnnc2SCC(=O)Nc2cc(OC)c([N+](=O)[O-])cc2C)cc1	-10	-9	2.6	.	.	.	6	0	10	0.0
CN(C(=O)c1cn2ccccc2n1)c1c(N)n(Cc2ccccc2)c(=O)[nH]c1=O	-3	-12	-1.7	4	9	-0.7	-5	-2	-2	1.4
CCC(=O)Nc1ccc2c(c1)nc1n2CCN(C2CCCCC2)C1	9	0	3.4	5	0	1.0	-17	-22	-2	1.2
CCc1ccc(C(=O)NNC(=O)CC2OC(=O)c3ccccc32)cc1 (centres undefined)	9	5	-2.7	3	6	-0.7	.	0	-4	0.8
CCOc1ccc2c(c1)OC(c1ccccc1)(C(F)(F)F)NC2=O (centres undefined)	8	13	1.3	.	.	.	-2	2	-2	-0.3
CCc1cc2c(=O)n(Cc3ccco3)c(SCC(=O)N(C)C3CCS(=O)(=O)C3)nc2s1 (centres undefined)	-8	21	4.2	-16	-8	1.7	21	37	.	1.0
Cc1ccc(Nc2nc(CSc3nnc(-c4ccccc4C)n3C)cs2)cc1	-3	-8	-8.0	.	.	.	-4	17	-1	0.7
Cc1cccc(Oc2ncnc3oc(-c4ccccc4)cc23)c1C	-6	-17	9.4	.	.	.	-7	-2	-9	0.3
O=C(c1ccc(=O)n(Cc2ccccc2)n1)N1CCN(C/C=C/c2ccccc2)CC1	-8	51	-2.7	.	.	.	-9	.	1	-0.6
COc1cc(CC(=O)N(C)CC(=O)Nc2ccc(Cl)c(C(F)(F)F)c2)cc(OC)c1OC	2	-13	-0.6	-10	-31	-0.9	-4	.	-3	0.3
Nc1ccc(N2CCCCC2)c(Cl)c1	-2	-12	-0.9	8	18	1.3	-2	20	4	1.7
Cc1cccc(OCC(=O)N(Cc2ccco2)C2CCS(=O)(=O)C2)c1C (centres undefined)	7	2	-1.0	-3	-12	0.3	4	-9	-1	0.4
O=C(CSc1nnc(SCc2ccccc2)s1)N/N=C/c1c[nH]c2ccccc12	-1	4	.	3	3	3.5	-8	.	.	.
COc1ccc(NC(=S)NC(=O)Cc2ccccc2)cc1	6	-12	-1.6	-12	-21	-10	7	.	3	0.9
COc1ccc(-c2csc(NC(=O)CSCc3c(C)noc3C)n2)cc1OC	16	11	-4.9	-35	-37	-4.7	3	-9	.	0.1
Cc1ccc(N2C(=O)C(Cl)=C(NCCO)C2=O)c(C)c1	2	-10	-1.2	.	.	.	-5	15	.	0.5
CSCCC(NS(=O)(=O)c1ccccc1)C(=O)OCc1cc(=O)oc2cc(O)ccc12 (centres undefined)	1	-13	-1.4	-22*	-10*	8.0*	7	19	.	0.8
Cn1c(CNc2ccc(Cl)cc2)nnc1SCc1ccccc1	-3	0	-0.7	.	.	.	-7	-3	-2	0.4
O=C(c1ccccc1Cl)N1CCN(c2ccccn2)CC1	1	-15	3.5	.	.	.	-2	0	-1	-0.3
O=C(Cc1ccsc1)Nc1cc(F)ccc1F	5	-7	6.8	7	6	-0.6	-2	-18	1	-0.3
Cc1cc(C)n2cc(CSc3nnnn3-c3ccccc3C)nc2n1	-4	14	0.5	2	5	-2.8	-3	8	14	-0.4
Nc1ccc(Cc2nc3cc4ccccc4cc3[nH]2)cc1	.	-12	-8.6	.	.	.	-10	-6	-1	-1.2
COc1ccc(N2CCN(C(CNS(=O)(=O)c3cc(F)ccc3F)c3cccnc3)CC2)cc1 (centres undefined)	4	70*	2.0	.	.	.	3	?	2	1.6
CCOc1ccc(-n2c(=O)c3c4c(sc3n(CC(=O)NCC3CCCO3)c2=O)CCC4)cc1 (centres undefined)	-9	9	-5.0	13	7	1.6	-12	-3	-6	0.0
COc1ccc(OC)c(NC(=S)NCc2ccc(S(N)(=O)=O)cc2)c1	5	-12	-8.0	10	8	2.5	10	-26	.	-0.1
CCOC(=O)Cc1csc(/N=C/c2c(O)n(-c3ccc(C)c(C)c3)c(=O)c3ccccc23)n1	2	-14	8.1	.	.	.	-1	-2	70	22*
CCOc1cccc2sc(N(CCCN(C)C)C(=O)c3ccc(S(=O)(=O)N4CCc5ccccc5C4)cc3)nc12	15	11	-1.6	-25	-36	-5.3	-5	-5	2	-0.2
Cc1cc(NS(=O)(=O)c2ccc(NC(=O)CSc3nnc(-c4ccco4)n3C)cc2)nc(C)n1	1	-2	0.1	18	19	-9.7	0	27	-6	0.3
CCc1cc2c(NC3CCCC3)ncnc2s1	-9	6	-2.0	-30	-36	-4.9	17	5	16	0.0
Cc1cccc(-n2c(O)c(C=Nc3ccccc3-c3n[nH]c(=S)[nH]c3=O)c3ccccc3c2=O)n1	6	-11	-2.2	-35	-45	-28	0	.	4	1.4
O=C1CCCN1CCCN1C(=O)N[C@@H](Cc2ccccc2)C1=O	-1	-6	-2.1	.	.	.	-1	-4	-7	-0.1
Cc1ccnc2nc(C(=O)OCC(=O)NCCc3ccccc3)nn12	5	-6	-5.5	.	.	.	-1	0	-4	0.2
CC1=NN(C(N)=S)C(=O)C1N=Nc1ccc(O)cc1 (centres undefined)	12	24	.	-10	-6	-2.4	12	.	.	.
O=C(CSc1ccccn1)Nc1nonc1[N+](=O)[O-]	6	22	.	-2	7	-2.8	5	-57	.	.
CN(C)c1cccc(C(=O)N(Cc2ccccc2)Cc2ccccc2)c1	-3	20	2.3	-34	-61	3.0	-53	12	-1	1.0
CCOC(=O)c1cc(NC(=O)/C=C\C(=O)O)ccc1Cl	3	-17	6.8	11	8	-1.6	-2	25	-9	-0.9
COc1ccc(CCNC(=O)c2coc3ccccc3c2=O)cc1	-3	-3	-3.6	-7	-17	3.5	-7	-3	0	0.0
COc1ccc(CCNc2ncnc3nc[nH]c23)cc1OC	3	-1	3.1	11	10	2.2	-2	-35	-5	-0.4
N#C/C(=C(/O)CN1C(=O)c2ccccc2C1=O)c1nc2ccccc2[nH]1	-2	-6	1.2	.	.	.	2	-9	-5	1.3
CCC1(CC)C(=O)C(C)(C)C(=O)OC1c1cccs1 (centres undefined)	4	-4	-0.3	.	.	.	-2	.	-2	0.0
CCn1c(SCC(=O)NCCOc2ccccc2)nc2ccccc2c1=O	-4	3	-0.1	.	.	.	8	3	-4	0.2
COc1ccc2oc(=O)cc(-c3cc4cccc(OC)c4o3)c2c1	0	11	14	8	4	1.0	-7	-3	3	0.1

Four of the compounds above, bar-delimited:
SMILES | B2AR ag | T cruzi inh | LANA-H2B inh | Ecoli rRNA inh | Ecoli rRNA inh OD600 | Ecoli rRNA inh RFP | Calb FLC | ALR H2O2 inh | Beta apoptosis | A1 inh
CCC1(CC)C(=O)C(C)(C)C(=O)OC1c1cccs1 (centres undefined) | 4 | -4 | -0.3 | . | . | . | -2 | . | -2 | 0.0
CCOC(=O)c1cc(NC(=O)/C=C\C(=O)O)ccc1Cl | 3 | -17 | 6.8 | 11 | 8 | -1.6 | -2 | 25 | -9 | -0.9
CN(C)c1cccc(C(=O)N(Cc2ccccc2)Cc2ccccc2)c1 | -3 | 20 | 2.3 | -34 | -61 | 3.0 | -53 | 12 | -1 | 1.0
CCOC(=O)Cc1csc(/N=C/c2c(O)n(-c3ccc(C)c(C)c3)c(=O)c3ccccc23)n1 | 2 | -14 | 8.1 | . | . | . | -1 | -2 | 70 | 22*

Retrieved by structure from the list above, two records:
SMILES	B2AR ag	T cruzi inh	LANA-H2B inh	Ecoli rRNA inh	Ecoli rRNA inh OD600	Ecoli rRNA inh RFP	Calb FLC	ALR H2O2 inh	Beta apoptosis	A1 inh
CCOC(=O)c1cc(NC(=O)/C=C\C(=O)O)ccc1Cl	3	-17	6.8	11	8	-1.6	-2	25	-9	-0.9
CC1=NN(C(N)=S)C(=O)C1N=Nc1ccc(O)cc1 (centres undefined)	12	24	.	-10	-6	-2.4	12	.	.	.
